Vaccinia inh: blocks a specific stage of Vaccinia orthopoxvirus infection, primary screen, cell-based, single point; Vaccinia-infected cells, mCherry/Venus stage reporter fluorescence; active compounds read low; some inactives read as strong as hits; actives 0.01% (n = 89,000); AID 1053133, 2014; activity change (mCherry), % (no concentration beside the values);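 active = mCherry past -33% and 40 or more points under the early reporter, replicates agreeing; inconclusive = past -33% without that gap or agreement; tested in A549 cells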;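 note: scaled between vehicle wells and reference inhibitor wells; 23 nL library stock went into each well; one replicate is shown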
Vaccinia inh Venus: also measured in Vaccinia inh; calls as there; activity change (Venus), %; measured here: Venus reporter, other viral stage;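 negative = less Venus signal; first of two replicates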
* = called active by the depositor. A portion of the library; rates above refer to the full screens.

How did Cc1ccc(OC(=O)N(C)C[C@@H]2OCc3ccccc3-c3ccccc3C(=O)N([C@H](C)CO)C[C@H]2C)cc1 do in these assays?
Vaccinia inh: -9; Vaccinia inh Venus: -1

What do the screens show for `C[C@@H]1CN([C@@H](C)CO)C(=O)c2cc(NC(=O)Nc3ccc4c(c3)OCO4)ccc2O[C@@H](C)CCCCO[C@@H]1CN(C)C(=O)NC1CCCCC1`?
Vaccinia inh: 4; Vaccinia inh Venus: -6

What do the screens show for `C[C@H]1CN([C@@H](C)CO)C(=O)c2cccc(NC(=O)Nc3cccc4ccccc34)c2O[C@@H]1CN(C)C(=O)Nc1cccc2ccccc12`?
Vaccinia inh: -3; Vaccinia inh Venus: 13

What do the screens show for `O=C(C[C@H]1CC[C@@H](NC(=O)Nc2ccccc2F)[C@@H](CO)O1)NCc1ccc(F)cc1`?
Vaccinia inh: 6; Vaccinia inh Venus: -4

How did O=C(Nc1ccc2c(c1)[C@H]1C[C@H](CC(=O)N3CCOCC3)O[C@H](CO)[C@H]1O2)c1cccnc1 do in these assays?
Vaccinia inh: 10; Vaccinia inh Venus: 2

What do the screens show for `O=C(NC[C@@H]1[C@@H](c2ccccc2)[C@@H](CO)N1Cc1cccnc1)C1CCCC1`?
Vaccinia inh: 12; Vaccinia inh Venus: 10

How did C[C@@H]1CN([C@H](C)CO)C(=O)Cc2cc(NS(=O)(=O)c3ccc(F)cc3)ccc2O[C@H]1CN(C)CC1CC1 do in these assays?
Vaccinia inh: 9; Vaccinia inh Venus: 3

How did CNC[C@H]1Oc2ccc(N(C)C)cc2CC(=O)N([C@H](C)CO)C[C@H]1C do in these assays?
Vaccinia inh: 8; Vaccinia inh Venus: 2

Results for CN(C)C(=O)c1ccc(-c2ccc3c(c2)[C@@H]2[C@@H](CCN2C(=O)c2ccccc2)[C@H](CO)N3)cc1 ?
Vaccinia inh: -15; Vaccinia inh Venus: -8

What do the screens show for `C[C@@H]1CCCCO[C@@H](CN(C)Cc2ccc(Cl)c(Cl)c2)[C@@H](C)CN([C@@H](C)CO)C(=O)c2cc(NC(=O)Nc3ccc(C(F)(F)F)cc3)ccc2O1`?
Vaccinia inh: -4; Vaccinia inh Venus: 6

What do the screens show for `COCC(=O)Nc1ccc2c(c1)C(=O)N(C)C[C@H](OC)[C@@H](C)CN(Cc1cccnc1)[C@@H](C)CO2`?
Vaccinia inh: -4; Vaccinia inh Venus: -7

How did COc1ccc(NC(=O)N(C)C[C@@H]2Oc3ccc(NC(=O)CCC(F)(F)F)cc3C(=O)N([C@H](C)CO)C[C@H]2C)cc1 do in these assays?
Vaccinia inh: 18; Vaccinia inh Venus: 3

How did COc1ccc(S(=O)(=O)N[C@@H]2C=C[C@@H](CC(=O)NCc3ccccc3F)O[C@@H]2CO)cc1 do in these assays?
Vaccinia inh: 1; Vaccinia inh Venus: 13

What do the screens show for `CCC(=O)N(C)C[C@H]1Oc2cc(-c3ccncc3)ccc2S(=O)(=O)N([C@@H](C)CO)C[C@@H]1C`?
Vaccinia inh: 25; Vaccinia inh Venus: 17

Results for COC(=O)[C@H](Cc1ccccc1)N1CC2=C[C@H](C3CC3)n3c(=O)n(C)c(=O)n3[C@@H]2[C@H]1[C@H](O)Cc1ccccc1 ?
Vaccinia inh: 4; Vaccinia inh Venus: -1

How did C[C@@H]1CN([C@H](C)CO)C(=O)c2cccc(NC(=O)Nc3ccc4c(c3)OCO4)c2O[C@@H]1CN(C)S(=O)(=O)c1ccc(F)cc1 do in these assays?
Vaccinia inh: -10; Vaccinia inh Venus: -16

How did COC(=O)[C@@H]1[C@@H](CO)[C@@H]2Cn3c(ccc(C4=CCCCC4)c3=O)[C@@H]2N1C(=O)C1CC1 do in these assays?
Vaccinia inh: 20; Vaccinia inh Venus: 8

How did C[C@H](CO)N1C[C@H](C)[C@@H](CN(C)S(=O)(=O)c2ccc(F)cc2)Oc2ccc(NC(=O)Nc3ccccc3)cc2CC1=O do in these assays?
Vaccinia inh: 16; Vaccinia inh Venus: 7

What do the screens show for `CNC[C@@H]1Oc2ccc(NC(=O)Cc3cn(C)c4ccccc34)cc2CC(=O)N([C@H](C)CO)C[C@@H]1C`?
Vaccinia inh: 4; Vaccinia inh Venus: 4

How did C[C@H](CO)N1C[C@H](C)[C@@H](CN(C)C(=O)c2ccccc2)OCCCC[C@H](C)Oc2ccc(NS(=O)(=O)c3cccs3)cc2C1=O do in these assays?
Vaccinia inh: -6; Vaccinia inh Venus: -4

Results for O=C(C[C@@H]1C[C@@H]2c3cc(NC(=O)C4CCOCC4)ccc3O[C@@H]2[C@@H](CO)O1)NC1CCCCC1 ?
Vaccinia inh: 8; Vaccinia inh Venus: 3

Results for O=C(C[C@@H]1C=C[C@H](NC(=O)Nc2cc(F)ccc2F)[C@H](CO)O1)Nc1ccccc1 ?
Vaccinia inh: -13; Vaccinia inh Venus: 2

How did COCC#Cc1ccc([C@H]2[C@H](CO)N3CCCCN(S(=O)(=O)c4ccccc4F)C[C@@H]23)cc1 do in these assays?
Vaccinia inh: 14; Vaccinia inh Venus: 3

What do the screens show for `Cc1cc(C(=O)Nc2cccc3c2O[C@@H](CN(C)C(=O)NC2CCCCC2)[C@@H](C)CN([C@@H](C)CO)C3=O)n(C)n1`?
Vaccinia inh: -10; Vaccinia inh Venus: -12

Results for C[C@@H]1CCCCO[C@H](CN(C)Cc2ccncc2)[C@H](C)CN([C@@H](C)CO)C(=O)c2cc(NC(=O)Nc3ccc4c(c3)OCO4)ccc2O1 ?
Vaccinia inh: -21; Vaccinia inh Venus: -20

Results for N#C[C@H]1[C@@H](c2ccccc2C2=CCCC2)[C@@H](CO)N1C(=O)Cc1ccncc1 ?
Vaccinia inh: 9; Vaccinia inh Venus: 13

Results for CC(C)CC#Cc1ccc2c(c1)O[C@@H](CN(C)C(=O)Cc1ccccn1)[C@@H](C)CN([C@H](C)CO)S2(=O)=O ?
Vaccinia inh: -14; Vaccinia inh Venus: -13

What do the screens show for `COc1cccc(CNC(=O)[C@H]2[C@H](CO)[C@H]3Cn4c(ccc(-c5cccnc5)c4=O)[C@@H]2N3C(C)=O)c1`?
Vaccinia inh: 3; Vaccinia inh Venus: 1

Results for COc1ccc(S(=O)(=O)Nc2ccc3c(c2)C(=O)N([C@H](C)CO)C[C@H](C)[C@H](CN(C)S(C)(=O)=O)O3)cc1 ?
Vaccinia inh: 11; Vaccinia inh Venus: 10

What do the screens show for `C[C@@H]1CCCCO[C@@H](CN(C)Cc2ccc(C(=O)O)cc2)[C@H](C)CN([C@@H](C)CO)C(=O)c2cc(NC(=O)Nc3ccc4c(c3)OCO4)ccc2O1`?
Vaccinia inh: 24; Vaccinia inh Venus: 18

What do the screens show for `C[C@@H]1CCCCO[C@@H](CN(C)C(=O)Nc2ccc(C(F)(F)F)cc2)[C@H](C)CN([C@@H](C)CO)C(=O)c2cc(NC(=O)C3CCCCC3)ccc2O1`?
Vaccinia inh: -14; Vaccinia inh Venus: -10

Results for COCC(=O)N1CCCCN2[C@H](C1)[C@H](c1ccc(C#Cc3cccnc3)cc1)[C@@H]2CO ?
Vaccinia inh: 3; Vaccinia inh Venus: -2

Results for COc1ccccc1S(=O)(=O)N[C@H]1C=C[C@@H](CC(=O)NCc2cccc(F)c2)O[C@H]1CO ?
Vaccinia inh: 6; Vaccinia inh Venus: 7

What do the screens show for `C[C@@H]1CN([C@H](C)CO)S(=O)(=O)c2ccc(C#CC3CC3)cc2O[C@H]1CN(C)Cc1ccccc1`?
Vaccinia inh: -13; Vaccinia inh Venus: -12

What do the screens show for `C[C@H](CO)N1C[C@H](C)[C@@H](CN(C)C(=O)NC2CCCCC2)OCCCC[C@H](C)Oc2ccc(NC(=O)Cc3ccccc3)cc2C1=O`?
Vaccinia inh: -22; Vaccinia inh Venus: -18

What do the screens show for `O=C(C[C@@H]1C[C@@H]2c3cc(NC(=O)Cc4ccncc4)ccc3O[C@@H]2[C@@H](CO)O1)NCc1cccc(F)c1`?
Vaccinia inh: 5; Vaccinia inh Venus: 9

What do the screens show for `CO[C@@H]1CN(C)C(=O)c2ccc(NC(=O)C3CC3)cc2OC[C@H](C)N(C)C[C@H]1C`?
Vaccinia inh: 14; Vaccinia inh Venus: 19

What do the screens show for `C[C@@H]1CN([C@@H](C)CO)S(=O)(=O)c2ccc(-c3ccccc3)cc2O[C@@H]1CN(C)C(=O)Nc1ccccc1F`?
Vaccinia inh: 6; Vaccinia inh Venus: -10

What do the screens show for `O=C(C[C@@H]1CC[C@H]2[C@@H](COC[C@H](O)CN2C(=O)Nc2ccc(F)cc2)O1)NCCc1ccncc1`?
Vaccinia inh: 10; Vaccinia inh Venus: 4

How did O=C(C1CCCC1)N1CC2(C1)[C@@H](c1ccccc1)[C@@H](CO)N2C(=O)c1cccnc1 do in these assays?
Vaccinia inh: 17; Vaccinia inh Venus: 16

Quoted at random: 2 records from the list, in no set order.
Results for COCC(=O)N1CCCCN2[C@H](C1)[C@H](c1ccc(C#Cc3cccnc3)cc1)[C@@H]2CO ?
Vaccinia inh: 3; Vaccinia inh Venus: -2

What do the screens show for `C[C@@H]1CCCCO[C@@H](CN(C)C(=O)Nc2ccc(C(F)(F)F)cc2)[C@H](C)CN([C@@H](C)CO)C(=O)c2cc(NC(=O)C3CCCCC3)ccc2O1`?
Vaccinia inh: -14; Vaccinia inh Venus: -10

(more compounds)
How did COc1cccc(S(=O)(=O)N2CC[C@H]3[C@H](CO)Nc4ccc(C#Cc5cccnc5)cc4[C@H]32)c1 do in these assays?
Vaccinia inh: -3; Vaccinia inh Venus: -6

How did O=C(Nc1nccs1)[C@H]1[C@H](CO)[C@H]2Cn3c(cccc3=O)[C@@H]1N2C(=O)C1CCCC1 do in these assays?
Vaccinia inh: 0; Vaccinia inh Venus: -6

How did CCS(=O)(=O)N1CCCCN2[C@H](CO)[C@@H](c3ccc(-c4ccccc4)cc3)[C@@H]2C1 do in these assays?
Vaccinia inh: -2; Vaccinia inh Venus: -6

Results for COc1ccc2c3c([nH]c2c1)[C@H](CO)N(Cc1ccc(F)cc1)CC31CCN(C)CC1 ?
Vaccinia inh: inconclusive

Results for COCC#Cc1ccc([C@H]2[C@H]3CN(C(=O)NC4CCCC4)CCCCN3[C@H]2CO)cc1 ?
Vaccinia inh: 3; Vaccinia inh Venus: 2

How did Cc1noc(C)c1NC(=O)Nc1ccc2c(c1)C(=O)N([C@@H](C)CO)C[C@@H](C)[C@H](CN(C)C(=O)Nc1c(C)noc1C)OCCCC[C@H](C)O2 do in these assays?
Vaccinia inh: 18; Vaccinia inh Venus: 4

Results for Cc1ccc(-c2ccc3c(c2)O[C@@H](CN(C)Cc2cncnc2)[C@H](C)CN([C@@H](C)CO)S3(=O)=O)cc1 ?
Vaccinia inh: inconclusive

What do the screens show for `CCC(=O)N1C[C@@H](C)[C@@H](OC)CN(C)C(=O)c2cc(NC(=O)NC(C)C)ccc2OC[C@@H]1C`?
Vaccinia inh: -1; Vaccinia inh Venus: 0

Results for O=C(C[C@@H]1CC[C@H](NC(=O)C2CCC2)[C@H](CO)O1)NCC1CC1 ?
Vaccinia inh: 5; Vaccinia inh Venus: -1

How did CCCNC(=O)N1CCC2(CC1)CN(C(=O)CC)[C@@H](CO)c1[nH]c3cc(OC)ccc3c12 do in these assays?
Vaccinia inh: 18; Vaccinia inh Venus: 1

What do the screens show for `CN(C)CC(=O)N[C@H]1C=C[C@H](CC(=O)NCc2ccccc2F)O[C@H]1CO`?
Vaccinia inh: 16; Vaccinia inh Venus: 14

What do the screens show for `CO[C@@H]1CN(C)C(=O)c2ccc(NC(=O)C3CC3)cc2OC[C@@H](C)N(C(=O)CN2CCOCC2)C[C@@H]1C`?
Vaccinia inh: 4; Vaccinia inh Venus: -1

Results for C[C@@H]1CN([C@H](C)CO)C(=O)Cc2cc(NC(=O)Nc3cccc4ccccc34)ccc2O[C@@H]1CN(C)Cc1ccncc1 ?
Vaccinia inh: -2; Vaccinia inh Venus: -3

Results for CS(=O)(=O)N1[C@@H](C#N)[C@@H](c2ccccc2-c2ccccc2F)[C@@H]1CO ?
Vaccinia inh: 9; Vaccinia inh Venus: 10

How did CC(C)c1cn([C@H]2C[C@@H]3O[C@@H](CO)CC[C@@H]3O[C@@H]2CCc2ccc(C#CC3CCCCC3)cc2)nn1 do in these assays?
Vaccinia inh: -22; Vaccinia inh Venus: -10

How did COc1ccc(-c2ccc([C@H]3[C@H](CO)N4C(=O)CN(Cc5ccccc5)C[C@@H]34)cc2)cc1 do in these assays?
Vaccinia inh: -5; Vaccinia inh Venus: -3

Gathered by group, those above with an NH in an aromatic ring
Results for COc1ccc2c3c([nH]c2c1)[C@H](CO)N(Cc1ccc(F)cc1)CC31CCN(C)CC1 ?
Vaccinia inh: inconclusive

How did CCCNC(=O)N1CCC2(CC1)CN(C(=O)CC)[C@@H](CO)c1[nH]c3cc(OC)ccc3c12 do in these assays?
Vaccinia inh: 18; Vaccinia inh Venus: 1

Entries shown so far that contain a CF3 group:
What do the screens show for `C[C@@H]1CCCCO[C@@H](CN(C)Cc2ccc(Cl)c(Cl)c2)[C@@H](C)CN([C@@H](C)CO)C(=O)c2cc(NC(=O)Nc3ccc(C(F)(F)F)cc3)ccc2O1`?
Vaccinia inh: -4; Vaccinia inh Venus: 6

How did COc1ccc(NC(=O)N(C)C[C@@H]2Oc3ccc(NC(=O)CCC(F)(F)F)cc3C(=O)N([C@H](C)CO)C[C@H]2C)cc1 do in these assays?
Vaccinia inh: 18; Vaccinia inh Venus: 3

What do the screens show for `C[C@@H]1CCCCO[C@@H](CN(C)C(=O)Nc2ccc(C(F)(F)F)cc2)[C@H](C)CN([C@@H](C)CO)C(=O)c2cc(NC(=O)C3CCCCC3)ccc2O1`?
Vaccinia inh: -14; Vaccinia inh Venus: -10

High-throughput results deposited in PubChem BioAssay by Broad Institute.
